# Ecoli rRNA inh – inhibits bacterial ribosomal RNA function over humanized ribosomes; E. coli WT GFP vs humanized-ribosome RFP mutants, fluorescence, 24 h; active compounds read low; DMSO median 0, no signal -100; GFP signal change (wild-type ribosome), % (no concentration beside the values); hit rate 1.6% among 350,000;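 active = significant combined selectivity score with lowered wild-type GFP, culture density cut under 30%, mutant RFP and density less affected; inactive = any of these conditions unmet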; note: one replicate is shown; some compounds called inactive have numbers as strong as hits
# Ecoli rRNA inh OD600 – further read-out of Ecoli rRNA inh, marked with its call; OD600 change, %; measured here: OD600 growth;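 optical density of the mix in the first replicate; 0 = DMSO median and -100 = no signal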
# Ecoli rRNA inh RFP – also measured in Ecoli rRNA inh; calls as there; RFP signal change, %; measured here: RFP humanized mutant strains;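 first replicate; 0 = DMSO median and -100 = no signal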
# Numbers without * were called inactive; & = joins results of further samples. Some of the compounds tested; count on the stated rates, not on these rows.
Compound,Ecoli rRNA inh,Ecoli rRNA inh OD600,Ecoli rRNA inh RFP
COc1ccc(CN(C)C[C@H]2Oc3ccc(NC(=O)Cn4cnnn4)cc3C(=O)N([C@@H](C)CO)C[C@H]2C)cc1,3.4,4.3,-1.1
CC(C)NC(=O)N(C)C[C@@H]1Oc2ncc(C#Cc3ccncc3)cc2C(=O)N([C@@H](C)CO)C[C@@H]1C,2.1,-2.8,0.5
O=C(C1CCOCC1)N1[C@@H](CO)[C@@H](c2ccccc2)C12CN(Cc1cccc(Cl)c1)C2,-2.6,6.9,1.8
N#C[C@H]1[C@@H](c2ccccc2)[C@H](CO)N1C(=O)CCN1CCCCC1,3.7,11.0,-0.1
COc1cccc(OC)c1C(=O)N1CCN(Cc2ccccc2F)CC1,11.6,16.8,1.0
C[C@@H]1CN([C@@H](C)CO)C(=O)c2cc(C#Cc3ccc(F)cc3)cnc2O[C@H]1CN(C)S(C)(=O)=O,-0.1,-3.7,-0.9
C[C@@H]1CN([C@H](C)CO)C(=O)c2cc(NC(=O)Nc3cccc4ccccc34)ccc2O[C@@H]1CN(C)CC1CCCCC1,1.4,-3.3,10.0
CN(C)C(=O)c1ccc(-c2ccc(C3[C@H]4CNC[C@@H]3N4C(=O)Nc3ccccc3F)cc2)cc1 (stereo partly specified),5.5,9.7,-3.5
Cc1cccc(C)c1-n1nnnc1C(c1ccccc1)N1CCN(C/C=C/c2ccccc2)CC1 (stereo unspecified),-25.3,-39.9,10.8
O=C1NC[C@H](Cc2ccccc2)N(C[C@@H]2CCCN2C[C@H](Cc2ccc(O)cc2)N2C[C@H](Cc3ccc(O)cc3)N(CC3CCCCC3)C(=O)C2=O)C1=O,-17.7,-17.6,-0.8
COCC(=O)N(C)C[C@H]1Oc2cc(C#CCN(C)C)ccc2S(=O)(=O)N([C@@H](C)CO)C[C@H]1C,0.4,10.6,-3.1
O=C(CCN1CCCCC1)NCC[C@H]1CC[C@@H](NC(=O)C2CCCC2)[C@H](CO)O1,1.4,6.6,-3.7

# As entered above:
# For Ecoli rRNA inh RFP, COCC(=O)N(C)C[C@H]1Oc2cc(C#CCN(C)C)ccc2S(=O)(=O)N([C@@H](C)CO)C[C@H]1C is listed with -3.1
# For Ecoli rRNA inh, C[C@@H]1CN([C@@H](C)CO)C(=O)c2cc(C#Cc3ccc(F)cc3)cnc2O[C@H]1CN(C)S(C)(=O)=O is listed with -0.1
# For Ecoli rRNA inh, CN(C)C(=O)c1ccc(-c2ccc(C3[C@H]4CNC[C@@H]3N4C(=O)Nc3ccccc3F)cc2)cc1 (stereo partly specified) is listed with 5.5
# For Ecoli rRNA inh RFP, COc1cccc(OC)c1C(=O)N1CCN(Cc2ccccc2F)CC1 is listed with 1.0

# Going on with the list:
Compound,Ecoli rRNA inh,Ecoli rRNA inh OD600,Ecoli rRNA inh RFP
C[C@H](CO)N1C[C@H](C)[C@H](CN(C)Cc2ccccc2)Oc2ncc(-c3ccc(F)cc3)cc2C1=O,-0.3,8.9,0.5
CC(C)NC(=O)N(C)C[C@@H]1Oc2ccc(NS(C)(=O)=O)cc2CC(=O)N(C)C[C@@H]1C,4.3,1.2,0.1
Cc1ccccc1-c1ccc([C@@H]2[C@@H](CO)N3C(=O)CN(C(=O)c4cccnc4)C[C@@H]23)cc1,-1.0,3.2,-2.9
COCC(=O)Nc1ccc2c(c1)C(=O)N(C)[C@@H]1CC[C@@H](CC(=O)Nc3cn(C)nc3C)O[C@H]1CO2,4.4,8.6,-0.4
CNC[C@@H]1OCCCC[C@@H](C)Oc2ccc(NS(=O)(=O)c3cn(C)cn3)cc2C(=O)N([C@@H](C)CO)C[C@H]1C,7.6,4.4,-5.2
C[C@@H]1CN([C@@H](C)CO)C(=O)c2cc(NS(=O)(=O)c3ccccc3)ccc2O[C@@H](C)CCCCO[C@H]1CN(C)S(=O)(=O)c1ccc(F)cc1,-1.4,6.8,-1.7
Cc1noc(C)c1NC(=O)Nc1ccc2c(c1)C(=O)N([C@@H](C)CO)C[C@H](C)[C@@H](CN(C)S(=O)(=O)c1ccccc1)OCCCC[C@H](C)O2,0.3,-4.8,0.5
N#Cc1ccc(-c2ccc3c(c2)[C@@H]2[C@@H](CCN2S(=O)(=O)c2ccccc2F)[C@@H](CO)N3)cc1,2.6,2.7,0.9
O=C(c1ccc2c(c1)OCO2)N1CC(=O)N2[C@H](CO)[C@H](c3ccc(C#CC4CCCC4)cc3)[C@H]2C1,-27.3,-57.5,9.7
COc1ccc(S(=O)(=O)N(C)C[C@H]2OCCCC[C@@H](C)Oc3ccc(NS(=O)(=O)c4ccc(F)cc4)cc3C(=O)N([C@@H](C)CO)C[C@@H]2C)cc1,-0.7,12.2,-0.8
N#Cc1ccc(-c2ccc3c(c2)[C@H]2[C@H](CCN2Cc2cncnc2)[C@H](CO)N3)cc1,9.3,-2.7,-1.3
NCC[C@H]1CC[C@@H](NC(=O)c2ccccc2F)[C@@H](CO)O1,5.2&-0.3,1.9&4.6,-3.3&-0.8

# Entries listed so far containing two or more sulfur atoms:
Compound,Ecoli rRNA inh,Ecoli rRNA inh OD600,Ecoli rRNA inh RFP
C[C@@H]1CN([C@@H](C)CO)C(=O)c2cc(NS(=O)(=O)c3ccccc3)ccc2O[C@@H](C)CCCCO[C@H]1CN(C)S(=O)(=O)c1ccc(F)cc1,-1.4,6.8,-1.7
COc1ccc(S(=O)(=O)N(C)C[C@H]2OCCCC[C@@H](C)Oc3ccc(NS(=O)(=O)c4ccc(F)cc4)cc3C(=O)N([C@@H](C)CO)C[C@@H]2C)cc1,-0.7,12.2,-0.8

# Following part
Compound,Ecoli rRNA inh,Ecoli rRNA inh OD600,Ecoli rRNA inh RFP
COCC#Cc1cnc2c(c1)C(=O)N([C@H](C)CO)C[C@H](C)[C@@H](CN(C)C(C)=O)O2,-1.5,9.3,-3.5
COc1ccc(S(=O)(=O)Nc2ccc3c(c2)C(=O)N([C@@H](C)CO)C[C@@H](C)[C@H](CN(C)Cc2ccc(Cl)c(Cl)c2)OCCCC[C@@H](C)O3)cc1,-1.4,0.3,3.6
Cc1ccccc1-c1ccc([C@@H]2[C@H](CO)N3C(=O)CN(C(=O)c4ccncc4)C[C@@H]23)cc1,1.0,-1.8,-1.5
CN1CCN(C(=O)C[C@H]2C[C@@H]3c4cc(NC(=O)c5cccnc5)ccc4O[C@@H]3[C@@H](CO)O2)CC1,0.4,12.7,-2.1
C[C@H]1CN([C@@H](C)CO)C(=O)CCCn2nncc2CO[C@H]1CN(C)S(=O)(=O)c1ccc(Oc2ccccc2)cc1,-25.7&8.3,-42.1&-19.5,-6.2&11.1
C[C@H](CO)N1C[C@H](C)[C@H](CN(C)Cc2ccc(C(=O)Nc3ccccc3N)cc2)Oc2ccc(NS(=O)(=O)c3cn(C)cn3)cc2CC1=O,1.6,13.3,-1.2
Cc1ccc(S(=O)(=O)N(C)C[C@@H]2Oc3ccc(NS(=O)(=O)c4ccccc4)cc3CC(=O)N([C@H](C)CO)C[C@@H]2C)cc1,0.1,-1.3,-1.3
O=C(c1ccccn1)N1C[C@@H]2[C@H](c3ccccc31)[C@@H](CO)N2C(=O)C1CCOCC1,4.1,1.3,-1.1
O=C(Nc1ccc(F)c(Cl)c1)c1cc(C2CCCCN2C(=O)CCCc2ccccc2)on1 (stereo unspecified),-1.3,-5.0,-0.5
CC(=O)C1=CCC(c2ccc(C)o2)N(S(=O)(=O)c2ccc(C)cc2)C1 (stereo unspecified),8.0,7.2,-5.7
C[C@@H]1CCCCO[C@@H](CN(C)S(=O)(=O)c2ccc(F)cc2)[C@H](C)CN([C@@H](C)CO)C(=O)c2cc(NC(=O)NC3CCCCC3)ccc2O1,1.7,0.1,-0.1
CC(C)(C)[S@](=O)N1Cc2cc(C(=O)N[C@@H]3CCN(Cc4ccccc4)C3)nc(-c3cccc(-c4cccnc4)c3)c2[C@@H]1CCO,-0.4,4.0,6.0
COc1ccccc1-c1cnc2c(c1)C(=O)N([C@H](C)CO)C[C@@H](C)[C@H](CN(C)C(=O)CN(C)C)O2,2.1,7.6,-3.2
C[C@@H]1CN([C@H](C)CO)C(=O)Cc2cc(NC(=O)Nc3ccc(F)cc3)ccc2O[C@H]1CN(C)Cc1ccc(C(=O)Nc2ccccc2N)cc1,-5.1,0.0,2.2
O=C(C[C@@H]1CC[C@H]2[C@@H](COC[C@@H](O)CN2C(=O)Nc2ccccc2)O1)NCCc1ccncc1,1.5,-2.5,-3.7
C[C@H]1CN([C@@H](C)CO)S(=O)(=O)c2ccc(-c3cncnc3)cc2O[C@@H]1CN(C)C(=O)Cc1cccnc1,7.3,1.9,-2.7
C[C@H]1CN([C@@H](C)CO)C(=O)c2cccc(NC(=O)c3ccncc3)c2O[C@H]1CN(C)C(=O)NC1CCCCC1,2.0,3.9,-1.7
CCOC1=C2[C@@H](CN(S(=O)(=O)c3ccccc3C)[C@H]2c2ccc(Cl)cc2)[C@H]2C(=O)NC(=O)[C@H]2C1,-36.3,-75.1,-9.7
COc1ccc(C#Cc2ccc3c(c2)O[C@@H](CN(C)C(=O)c2ccccn2)[C@@H](C)CN([C@H](C)CO)S3(=O)=O)cc1,3.5,11.0,2.7
C[C@@H]1CCCCO[C@H](CN(C)Cc2ccncc2)[C@H](C)CN([C@@H](C)CO)C(=O)c2cc(NC(=O)CCCN(C)C)ccc2O1,4.6,1.6,-2.3
O=C(C[C@@H]1CC[C@H]2[C@@H](COC[C@@H](O)CN2S(=O)(=O)c2ccc(Cl)cc2)O1)N[C@@H]1CCN(Cc2ccccc2)C1,-54.3,-73.5,-10.6
C[C@H]1CN([C@@H](C)CO)C(=O)Cc2cc(NS(=O)(=O)c3cn(C)cn3)ccc2O[C@@H]1CN(C)Cc1ccc(Cl)c(Cl)c1,-1.5,-3.7,3.8
COc1ccc2c3c([nH]c2c1)[C@@H](CO)N(S(=O)(=O)c1cn(C)cn1)CC31CCN(CC2CCCCC2)CC1,3.7,11.5,-1.2
C[C@H](CO)N1C[C@H](C)[C@@H](CN(C)C(=O)c2cccnc2)Oc2ncc(/C=C/c3ccccc3)cc2C1=O,-0.7,19.1,3.8
C[C@H]1CC=CC[C@@H](c2ccccc2)NC(=O)[C@H](C)N(C)C(=O)c2ccccc2O1 (mixture of isomers),-6.6,-8.4,-1.4
C/C=C/c1ccc2c(c1)O[C@@H](CN(C)C(=O)C1CC1)[C@H](C)CN([C@H](C)CO)S2(=O)=O,-4.2,-14.4,-3.6
COc1ccc(NC(=O)N(C)C[C@@H]2OCCCC[C@@H](C)Oc3ccc(NS(=O)(=O)c4ccc(OC)cc4)cc3C(=O)N([C@H](C)CO)C[C@H]2C)cc1,1.6,-2.0,1.4
CCCNC(=O)C[C@@H]1CC[C@H]2[C@@H](COc3ccc(NC(=O)Nc4ccccc4F)cc3C(=O)N2C)O1,2.1,1.8,0.9
Cc1ccccc1S(=O)(=O)N1C[C@H](O)COC[C@H]2O[C@H](CC(=O)NCCc3ccccc3)CC[C@@H]21,-4.6,-3.1,0.1
COc1cccc(-n2c(SCC(=O)NC3CC3)nc3ccccc3c2=O)c1,7.1,3.5,0.2
CO[C@H]1CN(C)C(=O)c2ccc(NC(=O)Cc3ccccc3)cc2OC[C@H](C)NC[C@@H]1C,-1.0,-2.8,-1.3
Cc1ccc(-c2ccc([C@@H]3[C@H]4CN(C(=O)Nc5cccc(F)c5)CC(=O)N4[C@H]3CO)cc2)cc1,-8.6,-28.0,26.4
CC(=O)N1[C@@H](CO)[C@@H](c2ccccc2)[C@@H]1CNC(=O)CN1CCOCC1,0.9,10.1,-3.0
O=C(CN1CCOCC1)N[C@@H]1CC[C@H](CCNC(=O)C2CCCCC2)O[C@@H]1CO,-0.4,-1.3,-0.6
COc1ccc(-c2ccc(C(=O)NCc3ccc(F)c(F)c3)c3occc23)c(C)c1,2.6,-5.1,0.4
O=C(C[C@@H]1C[C@@H]2c3cc(NC(=O)c4cccnc4)ccc3O[C@@H]2[C@@H](CO)O1)NCc1ccncc1,1.7,2.7,-1.2

# Full records, looked up by structure:
# Shown for COc1ccc(-c2ccc(C(=O)NCc3ccc(F)c(F)c3)c3occc23)c(C)c1 → Ecoli rRNA inh: 2.6; Ecoli rRNA inh OD600: -5.1; Ecoli rRNA inh RFP: 0.4
# Shown for Cc1ccc(-c2ccc([C@@H]3[C@H]4CN(C(=O)Nc5cccc(F)c5)CC(=O)N4[C@H]3CO)cc2)cc1 → Ecoli rRNA inh: -8.6; Ecoli rRNA inh OD600: -28.0; Ecoli rRNA inh RFP: 26.4
